Compound activity (PubChem BioAssay)
Sfp PPTase inh: Sfp phosphopantetheinyl transferase inhibition; hit rate 3.5% among 310,000; Q9F4F7; Biochemical Sfp PPTase activity, qHTS; Potency, µM, for the others: max response, negative = inhibition, hits mostly inhibitors; AID 1490; active = well fitted inhibition curve with a large enough effect; inconclusive = small, poorly fitted or top-dose-only effect, or another doubt; inactive = no such curve, though single readings can be large or run the other way;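 note: the enzyme is Sfp with the accession as filed and its product quenches rhodamine fluorescence; potency is the fitted concentration of half-maximal effect; 0% = enzyme reaction without inhibitor and -100% = no enzyme wells; top concentration of the series not given in the record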
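Sfp 15 nM + cpd, 15 min RT; start w/ rhodamine-CoA 5 uM, BHQ-2-YbbR 12.5 uM (final); 50 mM Hepes pH 7.6, 10 mM MgCl2, 0.01% NP-40, 0.01% BSA; read 525/598 nm at 0 and 30 min.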
gsp ag: activates gsp, the McCune-Albright syndrome mutation | Potency, µM (top dose mostly 76.9 µM), without a hit: top-dose activation (cAMP increase), actives largely listed as activators | AID 624287 | hit rate 0.13% among 340,000 | gsp mutant cells, cAMP HTRF, 30 min; control for the full effect not named in the record; active = well fitted activation curve with a large enough effect; inconclusive = small, poorly fitted or top-dose-only effect, or another doubt; inactive = no such curve, though single readings can be large or run the other way; cell line not stated here;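 note: phosphodiesterase inhibitor Ro 20-1724 added with compounds to block cAMP breakdown; potency is the fitted concentration of half-maximal effect; nearly all actives have a fitted effect of over 60% in size; about a fifth of the inactives were tested at one dose only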
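Cells stably selected in G418 were plated at 2000/well, grown 16-24 hr, then given compounds in DMSO with the PDE inhibitor […] (300 uM solution added) for 30 min at 37C; cAMP was read by HTRF.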
gsp antagonist: gsp mutant antagonism | gsp-mutant cells, cAMP HTRF, 30 min; control for the full effect not named in the record | AID 624288 | Potency, µM (doses to about 76.9 µM), for the others: top-dose activity change, negative = inhibition, actives largely listed as inhibitors | hit rate 0.4% among 340,000; active = falling curve of any shape with a large fitted effect; inconclusive = falling curve, mostly with a smaller effect; inactive = flat or rising curve; cell line not stated here;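 note: intracellular cAMP measured with PDE inhibitor Ro 20-1724 present during compound exposure; potency is the fitted concentration of half-maximal effect; % is set by controls: 0 for no effect and ±100 for the full control effect; nearly all actives have a fitted effect of over 65% in size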
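HTRF cAMP measurement after 30 min RT detection following 30 min, 37C compound treatment alongside […] (added as 300 uM solution) in G418-selected cells seeded at 2000/well and grown 16–24 h.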
Menin-MLL FL inh: inhibitors of human menin-MLL interaction, wild-type MLL peptide. Fluorescence polarization, fluorescein-MLL peptide displacement from menin. FP activity change, % at 61.4 µM. 290,000 tested, under 10 active. AID 1766; inconclusive = falling polarisation curve, or a change in total fluorescence; inactive = total fluorescence flat and polarisation flat or rising; no compound was filed as active; the % refers to the polarisation; negative = inhibition;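 note: % of control where 0% means no effect; inhibitors lower the polarisation; unlabelled MLL peptide was the positive control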
TRPV1 potentiator: human TRPV1 potentiation; hit rate 0.02% among 320,000; potentiation, % at 8.33 µM; Q8NER1; TRPV1-expressing cells, Fluo-8 calcium influx, capsaicin EC20 potentiation; host cell line not named in the record; control for the full effect not named in the record; active means potentiation above 80%; inconclusive means 30% to 80%; inactive means below 30%; note: 0% is about no effect
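Fluo-8 calcium influx in TRPV1-expressing cells, kinetic read (ex 480/em 520 nm). Compound added and read 3 min for agonist activity, followed by capsaicin at EC20 final and 2 min further read for enhancement.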
ClpP mod: qHTS Assay for Activators of ClpP | ATP-dependent Clp protease proteolytic subunit (Bacillus subtilis (strain 168)), P80244 | AID 651965, 2013 | hit rate 1.9% among 340,000 | Potency, µM (top dose mostly 57.5 µM), for the others: at the highest dose activity change, negative = active | purified B. subtilis ClpP, FRET peptide cleavage, 20 min; active = well fitted falling curve with a large enough effect; inconclusive = small, poorly fitted or top-dose-only effect; inactive = no such curve, though single readings can be large or run the other way; note: potency is the fitted concentration of half-maximal effect; the source files actives as falling curves though it sought activators and does not explain the sign; nearly all actives have a fitted effect of over 65% in size; many hits overshoot -100%
Target sequence (P80244 whole entry, looked up): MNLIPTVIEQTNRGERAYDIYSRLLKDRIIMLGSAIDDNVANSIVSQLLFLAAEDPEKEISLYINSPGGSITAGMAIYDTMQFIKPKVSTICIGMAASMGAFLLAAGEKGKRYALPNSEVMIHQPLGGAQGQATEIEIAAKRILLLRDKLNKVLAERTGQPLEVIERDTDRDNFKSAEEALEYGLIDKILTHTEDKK
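Buffer: 100 mM Tris/HCl pH8, 100 mM KCl, 0.05% low protease BSA, 2.5% glycerol, 0.01% Tween-20. ClpP 10 microg/mL final; 20 min RT; delta FRET normalized to ADEP and DMSO controls.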
TRPML1 inh: inhibitors of human TRPML1 channel; Q9GZU1; TRPML1-inducible cells, Ca2+ dye fluorescence, FDSS; hits give low values; inhibition of EC80 agonist-evoked calcium signal; activity change, negative = inhibition, % (test concentration not listed); hit rate 0.02% among 390,000; in the data active means activity change below about -50%; inconclusive means about -30% to -50%; inactive means above about -30%;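 note: stimulus is agonist 54-4 at its EC80 concentration; % is set by controls: 0 for no effect and ±100 for the full control effect; compound concentration not given in the record; the text of the record puts the active cut at -80%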
Target sequence (Q9GZU1 whole entry, looked up): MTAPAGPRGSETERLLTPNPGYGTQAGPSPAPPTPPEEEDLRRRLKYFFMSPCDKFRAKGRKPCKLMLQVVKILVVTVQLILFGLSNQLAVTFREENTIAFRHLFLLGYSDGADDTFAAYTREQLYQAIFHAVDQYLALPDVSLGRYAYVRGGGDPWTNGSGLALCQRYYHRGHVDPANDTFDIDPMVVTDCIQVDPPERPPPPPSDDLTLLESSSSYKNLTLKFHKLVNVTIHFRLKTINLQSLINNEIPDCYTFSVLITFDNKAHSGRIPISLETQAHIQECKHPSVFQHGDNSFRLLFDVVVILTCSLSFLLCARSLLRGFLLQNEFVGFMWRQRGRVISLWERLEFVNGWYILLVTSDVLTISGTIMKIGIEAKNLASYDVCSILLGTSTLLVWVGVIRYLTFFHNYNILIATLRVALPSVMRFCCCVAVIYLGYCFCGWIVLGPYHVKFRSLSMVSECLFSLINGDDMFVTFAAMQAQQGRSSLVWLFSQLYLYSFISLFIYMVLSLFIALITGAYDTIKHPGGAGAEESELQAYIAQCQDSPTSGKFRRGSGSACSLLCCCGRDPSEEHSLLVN
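Tet-induced TRPML1-DL cells loaded with Ca8 no-wash calcium dye were read kinetically on FDSS. Compound addition was followed by EC80 agonist 54-4 (4 uM final); inhibition was read over 110 s.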
Active calls of the source: *; ? = inconclusive; . = not tested or not shown; & = joins results of further samples; [ ] = another dose, or the depositor's remark.

SMILES	Sfp PPTase inh	gsp ag	gsp antagonist	Menin-MLL FL inh	TRPV1 potentiator	ClpP mod	TRPML1 inh
Cc1cc(C)c2c(c1)OC(=O)CC2c1ccc2c(c1)OCO2 (stereo not given)	.	.	-11%	.	.	-0.2%	-17
CCCCCC(=O)NC(CC(=O)OC)c1ccc2c(c1)OCO2 (stereo not given)	8%	-12%	3%	1.6	?	-1.5%	-13
COc1ccccc1C(CNC(=O)C1CCN(C(=O)Nc2ccccc2)CC1)N1CCCC1 (stereo not given)	.	-2%	9%	.	7	3.6%	12
Cc1ccc(S(=O)(=O)N(C)C)cc1NC(=O)CN1C(=O)NC2(CCCCCC2)C1=O	6%	-19%	-3%	0.7	0	-2.0%	-11
CCc1cc(=O)oc2cc(OCC(=O)N3CCCc4ccccc43)ccc12	8%	-30%[inhibitor]	-4%	16	-2	?	-16
COCCCNC(=S)Nc1ccc2nc(N3CCOCC3)cc(C)c2c1	1%	-11%	6%	1.0	-8	4.2%	-8
Cc1ccc(NC(=O)CSCC(=O)Nc2ccccc2C(=O)NC2CC2)cc1	.	-53%[inhibitor]	5%	.	-9	2.2%	-26
O=C(NCC1COc2ccccc2O1)c1ccccc1 (stereo not given)	-7%	5%	4%	-1.0	-33	-2.4%	-5
O=C(NCc1ccc2c(c1)OCO2)c1ccc(COc2cc(Cl)ccc2Cl)o1	?	-16%	-12%	3.1	4	-2.9%	19
O=S1(=O)CCOCCN1Cc1ccccc1	-5%	-15%	7%	-3.5	?	-1.6%	8
c1ccc(CCOn2ccnc2)cc1	6%	-3%	7%	0.6	0	-5.3%	11
CS(=O)(=O)c1sc(C#N)c2c1C(=O)CC(c1ccccc1)C2 (stereo not given)	?	16%	5%	-1.4	1	-4.0%	-3
CC(C)[C@H](NC(N)=O)C(=O)Nc1ccc(Oc2ccccc2)cc1	10%	-9%[15.4 µM]	-11%	0.3	-1	.	-13
Cc1cc(C)n2ncc(C(=O)NCc3ccccc3)c2n1	0%	-2%	18%	1.1	-26	28µM*	4
COc1cccc(CN(C(=O)c2cccc(OC)c2)C2CCS(=O)(=O)C2)c1 (stereo not given)	21%	2%	6%	-1.7	-4	1.0%	-9
CCCCn1c(NCc2ccc3c(c2)OCO3)nc2ccccc21	3%	-22%	-7%	7.4	-20	-2.2%	-3
Cc1cc(C(=O)N/N=C\c2ccc(COc3ccc([N+](=O)[O-])cc3)o2)ccc1[N+](=O)[O-]	-4%	-3%	-3%	0.0	3	-0.1%	1
c1ccc(CCN2CCN(c3ncnc4c3cnn4-c3ccccc3)CC2)cc1	1%	-31%[inhibitor]	?	0.2	-15	-1.9%	40
COc1ccc(C2=NOC(Cn3nc(C(=O)NCc4cccs4)cc3-c3ccccc3)C2)cc1 (stereo not given)	.	.	?	.	?	-3.8%	-10
O=C(COC(=O)COc1ccc(Br)cc1)Nc1cccnc1Cl	0%	-28%	3%	-2.3	-12	-2.5%	-6
CCCN(C(=O)CCOc1ccc(C(C)(C)C)cc1)c1c(N)n(Cc2ccccc2)c(=O)[nH]c1=O	.	-29%	-2%	.	7	-2.9%	-3
COc1ccc(Cc2nc3ccc(C(=O)N4CCCN(C=O)CC4)cc3o2)cc1	18%	18%	3%	-1.5	-8	-1.1%	36
CC(=O)Nc1ccc(NC(=O)CSc2nnc(-c3ccc(NS(C)(=O)=O)cc3)n2C)cc1C	15%	8%	8%	-4.9	4	-1.2%	-5
CC(NC(=O)c1cccnc1)C(c1ccccc1)N1CCN(C)CC1 (stereo not given)	9%	-24%	7%	-0.7	?	1.1%	11
CC(Sc1nnnn1C)C(=O)Nc1ncc(Cl)cc1Cl (stereo not given)	.	1%	9%	.	-2	-3.7%	11
O=C(COC(=O)c1ccc(OC(F)F)cc1)NCCC1=CCCCC1	.	-19%	12%	.	-10	-3.4%	21
Cc1cc(Br)ccc1SCC(=O)OCC(=O)Nc1ccccc1C#N	-4%	3%	12%	-0.2	-18	1.3%	?
Cc1nnc(SCCn2c(N3CCN(Cc4ccccc4)CC3)nc3c2c(=O)[nH]c(=O)n3C)s1	9%	-7%	-3%	0.1	21	-0.5%	-14
COc1ccc(O)c(/C=N/NC(=S)Nc2cccnc2)c1	-6%	?	-3%	27	-4	?	-7
Cc1ccc2c(c1)C1C=CCC1C(C(=O)NCCCN1CCOCC1)N2 (stereo not given)	.	.	2%	.	.	-6.1%	-14
c1nc(N2CCOCC2)c2[nH]cnc2n1	.	16%	9%[15.4 µM]	.	.	-0.6%	-16
O=Cc1cccc(OC(=O)Nc2ccccc2)c1	.	6%[15.4 µM]	5%	.	.	.	-6
CC1Nc2ccc(C(=O)NC3CCCCC3)cc2NC1=O (stereo not given)	-9%	-9%[15.4 µM]	10%	?	-28	.	-9
CCCCN(C)CCCNC(=O)c1cccc(N2CCCC2=O)c1	0%	-3%	7%	1.4	-3	-4.1%	-9
CCNS(=O)(=O)c1c(C)cc(N2CCCC2=O)cc1C	15%	0%	12%	-1.0	-6	3.5%	99
O=C(NC1CC1)C1CCN(c2nc3ccccc3s2)CC1	10%	-2%	7%	-3.9	-18	-2.2%	7
COc1ccc(C2/C=C\CN(C(=O)c3ccccc3)[C@H](Cc3ccccc3)C(=O)N2Cc2ccc(F)cc2)cc1 (stereo not given in full)	7%	8%	-8%	3.9	?	-5.2%	32
COc1cccc(C(Nc2ccccn2)c2oc(CO)cc(=O)c2O)c1 (stereo not given)	4.5µM*	1%	-2%	21	-4	-0.7%	-9
CCOC(=O)CNC(=O)CSc1nnc(COc2ccc(Cl)cc2)n1CC	20%	-4%	-5%	1.3	-5	-12%	-9
COc1cc(C2C=C(C34CC5CC(CC(C5)C3)C4)NC(=S)N2)cc(OC)c1OC (stereo not given)	13%	3%	?	1.4	9	-0.9%	-7
CC1(C)NC(=O)N(CC(O)COc2ccccc2-c2ccccc2)C1=O (stereo not given)	0%	-7%	-7%	-0.9	-11	-0.6%	-3
CSc1cccc(CN2CCCC(CNC(=O)c3ccc(F)cc3)C2)c1 (stereo not given)	14%	13%	4%	-1.2	-11	-1.7%	-11
O=C(COC(=O)C1CCCN1C(=O)C12CC3CC(CC(C3)C1)C2)c1ccc(Br)cc1 (stereo not given)	3%	15%[15.4 µM]	1%	5.7	-8	.	-13
OC[C@@H]1[C@@H](c2ccc(F)cc2)C(c2ccccc2)=NN1c1ccccc1	34%[activator]	.	4%	3.5[94.6 µM]	.	3.4%	-2
CCOc1ccc(N(CC(=O)Nc2ccc(C)c(Cl)c2)S(C)(=O)=O)cc1	9%	4%	-7%	1.8	-4	-0.3%	-8
COc1ccc(Br)cc1CNC(=O)CCC(=O)N1CCSc2ccccc21	-8%	0%	-14%	-0.5	20	-2.7%&0.2%	-8&19
CCN(CC)CCN1C(=O)C2C(C(=O)Nc3cccc(SC)c3)C3C=CC2(O3)C1C(=O)NC1CCCC(C)C1C (stereo not given)	0%	20%	9%	-2.8	?	.	9
O=C(NCCCn1ccnc1)C1CCCN(S(=O)(=O)c2ccc(F)cc2)C1 (stereo not given)	4%	-11%[15.4 µM]	2%	1.6	0	.	28
CC(C)(C)C(=O)Nc1nc2c(c(=O)[nH]1)CCCC2	4%	3%	8%	2.9	11	.	-8
O=C(N/N=C/c1ccc(OCC2COCCO2)cc1)c1ccc(Br)cc1 (stereo not given)	19%	-2%[15.4 µM]	-7%	0.9	-15	-2.3%	18
(listing goes on)
SMILES	Sfp PPTase inh	gsp ag	gsp antagonist	Menin-MLL FL inh	TRPV1 potentiator	ClpP mod	TRPML1 inh
CC1(C)Cc2c(sc3c4nnnn4c4nnnn4c23)CO1	-5%	.	.	-1.3	-3	.	.
COCC(C)n1c(C)cc(C(=O)COC(=O)C2=NN(c3ccccc3)C(=O)CC2)c1C (stereo not given)	18%	.	.	-1.6	3	.	.
Cc1cc(C)cc(-n2c(N)c(C(=O)Nc3c(C)n(C)n(-c4ccccc4)c3=O)c3nc4ccccc4nc32)c1	?	-5%[15.4 µM]	-1%	-1.7	-1	0.7%	-6
COc1cc(-c2nc(S(=O)(=O)c3ccc(C)cc3)c(N3CCOCC3)o2)cc(OC)c1OC	?	?	11%	-0.7	24	?	9
CN(C)c1ccc(C=NN2CCCCCC2)cc1	.	16%	2%	.	.	.	1
Cn1c(=O)n(C)c2cc(NC(=O)COc3ccccc3)ccc21	2%	-9%	0%	-2.6	0	-1.1%	-10
Cn1c(COc2ccccc2)nnc1SCC(=O)NC1CCCC1	-4%	?	-6%	-0.1	1	.	16
O=C(NC1CCCN(c2ccc(C(F)(F)F)cn2)C1)c1ccncc1 (stereo not given)	19%	25%	-4%	.	-15	-1.1%	-4
Cc1ccc(NC(=O)Cc2n[nH]c(=S)n2C)cc1	22%	-59%[inhibitor]	-5%	5.3	3	.	5
CCC(C)n1c(=S)[nH]c2c(sc3ccc([N+](=O)[O-])cc32)c1=O (stereo not given)	12%	?	?	8.5	-13	-0.7%	-16
O=C(c1ccc(Cl)c(NC2=NC3CS(=O)(=O)CC3S2)c1)N1CCN(c2ccc(F)cc2)CC1 (stereo not given)	4%	?	2%	.	-7	-1.1%	-12
O=C(Nc1cc(C(F)(F)F)ccc1N1CCCCC1)c1ccco1	6%	11%	-6%	2.3	2	260%	3
O=C(O)CSc1ncnc2c1sc1nc(-c3ccccc3)c3c(c12)CCC3	5%	-23%	-28%	4.8	6	-9.5%	-14
Cc1ccccc1NC(=S)N1CCOCC1	5%	6%	-11%	0.9	1	-1.9%	35
O=C(CSc1nnc(Cc2cccs2)n1-c1ccccc1)NCc1ccc2c(c1)OCO2	17%	-43%[inhibitor]	-13%	0.8	-3	0.9%	3
CCOc1ccc2oc(C(=O)OCC(=O)NC3CC3)c(C)c2c1	17%	-7%	-1%	2.7	-10	3.6%	-2
Cc1ccc(CCNC(=O)C2CCN(S(=O)(=O)c3ccc4nc5c(c(C(=O)O)c4c3)CCCC5)CC2)cc1	15%	23%	-2%	6.4	24	-2.4%	11
